FGF22 binding – FGF22 (human) thermal shift binding | Q9HCT0 | calls only at 9.99 µM | recombinant FGF22 thermal shift, SYPRO orange fluorescence; percent of sucrose octasulfate shift, DMSO zero | 1.5% of 340,000 active | AID 651658;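 active = melting point raised past a set limit in the mean and every replicate; three in four hits are not shown here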
Target sequence (Q9HCT0 whole entry, looked up): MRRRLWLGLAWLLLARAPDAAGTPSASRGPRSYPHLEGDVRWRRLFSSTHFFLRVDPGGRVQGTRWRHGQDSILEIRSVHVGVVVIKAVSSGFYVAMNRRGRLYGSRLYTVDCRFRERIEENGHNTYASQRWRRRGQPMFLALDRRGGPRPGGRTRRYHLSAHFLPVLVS
Ecoli rRNA inh – selective bacterial rRNA inhibition in E. coli; E. coli WT GFP vs humanized-ribosome RFP mutants, fluorescence, 24 h; stronger effect = lower value; DMSO median 0, no signal -100; GFP signal change (wild-type ribosome), % (concentration not given with the values); 1.6% of 350,000 active;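 active = significant combined selectivity score with lowered wild-type GFP, culture density cut under 30%, mutant RFP and density less affected; inactive = any of these conditions unmet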; also: one replicate is shown; some compounds called inactive have numbers as strong as hits
Ecoli rRNA inh OD600 – further read-out of Ecoli rRNA inh, marked with its call; OD600 change, %; measured here: OD600 growth;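 optical density of the mix in the first replicate; 0 = DMSO median and -100 = no signal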
Ecoli rRNA inh RFP – further read-out of Ecoli rRNA inh, marked with its call; RFP signal change, %; measured here: RFP humanized mutant strains;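 first replicate; 0 = DMSO median and -100 = no signal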
* marks the source's active call; other numbers are inactive results; i = inactive; & = joins results of further samples. Some of the compounds tested, so the mix of outcomes need not match the whole.

Ecoli rRNA inh OD600 | FGF22 binding | Ecoli rRNA inh RFP | Ecoli rRNA inh | structure
2.3 | i | -2.1 | -5.6 | C[C@H]1CCCCO[C@H](CN(C)S(=O)(=O)c2cccs2)[C@@H](C)CN([C@@H](C)CO)C(=O)c2cc(NC(=O)Cc3ccccc3)ccc2O1
2.2 | i | 1.2 | -2.6 | CCCC(=O)Nc1ccc2c(c1)C(=O)N(C)[C@H]1CC[C@H](CC(=O)Nc3ccc(F)cc3)O[C@@H]1CO2
-7.5 | i | 5.9 | -9.8 | Cc1cccc(-c2ccc3c(c2)[C@@H]2C[C@H]4[C@@H](CN2CC3)[C@H](C)ON4C)c1
-9.3 | i | -0.3 | -0.6 | COCC(=O)N1CCCCN2[C@H](CO)[C@H](c3ccc(-c4ccc(C)cc4)cc3)[C@H]2C1
-11.9 | i | 0.0 | 2.6 | C[C@H](CO)N1C[C@H](C)[C@@H](CN(C)C(=O)Cc2ccccc2)OCCCC[C@H](C)Oc2ccc(NS(=O)(=O)c3ccc(F)cc3)cc2C1=O
-8.1 | i | 2.3 | -0.6 | COc1ccc(NC(=O)Nc2ccc3c(c2)CC(=O)N([C@H](C)CO)C[C@@H](C)[C@@H](CN(C)C(=O)Nc2cccc4ccccc24)O3)cc1
1.7 | i | -3.3 | 0.8 | COc1ccc(NC(=O)Nc2ccc3c(c2)C(=O)N([C@H](C)CO)C[C@H](C)[C@H](CN(C)C(=O)CCC(F)(F)F)OCCCC[C@@H](C)O3)cc1
5.7 | i | 2.0 | -3.8 | C[C@@H]1CN([C@@H](C)CO)C(=O)c2cc(NS(=O)(=O)c3ccc(F)cc3)ccc2O[C@H]1CN(C)S(=O)(=O)c1ccccc1

Continuation:
Ecoli rRNA inh OD600 | FGF22 binding | Ecoli rRNA inh RFP | Ecoli rRNA inh | structure
-3.9 | i | -1.6 | 1.4 | O=C(O)C[C@H]1CC[C@@H]2[C@H](COC[C@H](O)CN2S(=O)(=O)c2ccc(Oc3ccccc3)cc2)O1
-1.3 | i | 3.6 | -7.8 | COc1cccc(C(=O)N[C@H](C(=O)N2CCC[C@H]2C(=O)NCc2ccccc2)c2ccccc2)c1
6.4 | i | -2.7 | 5.8 | CN1CCN(C(=O)C[C@H]2CC[C@H]3[C@@H](COC[C@H](O)CN3CC3CCOCC3)O2)CC1
7.3 | i | 2.6 | 3.0 | CC(=O)Nc1ccc2c(c1)C(=O)N(C)[C@@H]1CC[C@H](CC(=O)NCC3CCCCC3)O[C@@H]1CO2
-4.7 | i | 0.8 | -3.3 | O=S(=O)(c1ccccc1F)N1CCCCN2[C@@H](CO)[C@@H](c3ccc(-c4cncnc4)cc3)[C@@H]2C1
15.7 | i | 2.3 | 0.6 | C[C@H](CO)N1C[C@H](C)[C@@H](CN(C)C(=O)Nc2ccc(C(F)(F)F)cc2)OCCCC[C@H](C)Oc2ccc(NC(=O)Cc3ccccc3)cc2C1=O
5.4 | i | -1.2 | 1.0 | CN(C)C(=O)C[C@H]1C[C@@H]2c3cc(NC(=O)Nc4ccccc4)ccc3O[C@@H]2[C@H](CO)O1
12.7 | i | 3.7 | 27.5 | C#CC1c2ccccc2CCN1CC=C (centres undefined)

The list goes on.
Ecoli rRNA inh OD600 | FGF22 binding | Ecoli rRNA inh RFP | Ecoli rRNA inh | structure
-59.9 | i | 7.5 | -13.2 | O=C(C[C@H]1CC[C@H]2[C@@H](COC[C@H](O)CN2CCC(F)(F)F)O1)NCc1ccc(Oc2ccccc2)cc1
-35.5 | i | 11.0 | -24.2 | COc1ccc2nc(-c3ccc(CN4CCC(c5nc6ccccc6[nH]5)CC4)cc3)c(-c3ccccc3)nc2c1
-5.0 | i | -0.7 | -2.0 | COc1ccc(S(=O)(=O)N(C)C[C@H]2Oc3c(NS(=O)(=O)c4ccc(F)cc4)cccc3C(=O)N([C@H](C)CO)C[C@H]2C)cc1
-2.5 | i | -0.1 | -1.7 | C[C@H](CO)N1C[C@H](C)[C@H](CN(C)C(=O)Nc2ccc(F)cc2)OCCCC[C@H](C)Oc2ccc(NS(=O)(=O)c3ccc(F)cc3)cc2C1=O
0.4 | i | 8.0 | -3.8 | CN1c2ccc(-c3ccccc3F)cc2[C@@H]2[C@@H](CCN2S(=O)(=O)c2ccc(F)cc2)[C@H]1CO
21.1 | i | 2.8 | 31.8 | CC(C)CCN(C)[C@H]1C[C@H]2c3[nH]c4ccccc4c3CCN2C[C@H]1[C@H](C)O
12.9 | i | 4.2 | 0.4 | C[C@H]1CN([C@@H](C)CO)C(=O)c2cc(NC(=O)Nc3ccc(C(F)(F)F)cc3)ccc2O[C@@H]1CN(C)C(=O)Nc1cccc2ccccc12
-5.0 | i | -0.6 | -4.4 | COc1ccc2c3c([nH]c2c1)[C@@H](CO)N(C(=O)c1cccc(F)c1)CC31CCN(S(=O)(=O)c2cccs2)CC1

Other results follow:
Ecoli rRNA inh OD600 | FGF22 binding | Ecoli rRNA inh RFP | Ecoli rRNA inh | structure
-1.2 | i | -3.9 | 4.6 | C[C@@H]1CCCCO[C@@H](CN(C)C(=O)NC2CCCCC2)[C@@H](C)CN([C@H](C)CO)C(=O)c2cc(NC(=O)c3ccccc3)ccc2O1
-7.7 | i | 0.7 | 2.6 | COc1ccc(C2=Nc3ccccc3N(C(=O)c3ccc4ncccc4c3)C2C(=O)NC(C)(C)C)cc1 (centres undefined)
6.5 | i | -3.4 | 2.7 | C[C@H](CO)N1C[C@H](C)[C@H](CN(C)C(=O)Nc2ccc(C(F)(F)F)cc2)OCCCC[C@H](C)Oc2ccc(NC(=O)Cc3ccccc3)cc2C1=O
2.9 | i | 2.5 | 0.9 | CCNC(=O)Nc1ccc2c(c1)C(=O)N(C)[C@@H]1CC[C@H](CC(=O)NCCN3CCCC3)O[C@@H]1CO2
2.5 | i | -0.2 | -2.8 | COc1ccc(NC(=O)N(C)C[C@H]2Oc3ccc(NC(=O)Nc4ccc5c(c4)OCO5)cc3CC(=O)N([C@@H](C)CO)C[C@@H]2C)cc1
-1.6 | i | -1.3 | -2.8 | C[C@@H]1CCCCO[C@H](CN(C)C(=O)c2ccncc2)[C@H](C)CN([C@@H](C)CO)C(=O)c2cc(NC(=O)NC3CCCCC3)ccc2O1
5.5 | i | 2.0 | 1.4 | CCNC(=O)C[C@H]1CC[C@@H]2[C@@H](COc3ccc(NC(=O)c4ccccc4Cl)cc3C(=O)N2C)O1
-46.4 | i | 19.9 | -5.5 | Cc1noc(C)c1NC(=O)Nc1ccc2c(c1)CC(=O)N([C@H](C)CO)C[C@H](C)[C@@H](CN(C)Cc1ccc(Oc3ccccc3)cc1)O2

Going on with the list:
Ecoli rRNA inh OD600 | FGF22 binding | Ecoli rRNA inh RFP | Ecoli rRNA inh | structure
-28.4 | i | 0.9 | -5.2 | O=C(Nc1cc(F)ccc1F)N1C[C@H]2[C@@H](c3ccccc31)[C@H](CO)N2CC1CCCC1
6.0 | i | -1.6 | 3.9 | Cc1noc(C)c1S(=O)(=O)Nc1ccc2c(c1)CC(=O)N([C@@H](C)CO)C[C@H](C)[C@H](CN(C)C(=O)Nc1ccc3c(c1)OCO3)O2
-7.5 | i | -0.5 | 1.7 | C[C@@H]1CCCCO[C@@H](CN(C)Cc2ccc(C(F)(F)F)cc2)[C@@H](C)CN([C@H](C)CO)C(=O)c2cc(NC(=O)Cc3ccccc3)ccc2O1
4.4 | i | -9.3 | 3.0 | CN1CCN(C(=O)C[C@H]2CC[C@@H]3[C@H](COC[C@H](O)CN3Cc3cccc(F)c3)O2)CC1
23.1 | i | -2.1 | 4.5 | O=C(CN1CCOCC1)N1CCCCN2[C@@H](CO)[C@H](c3ccc(Br)cc3)[C@@H]2C1
0.0 | i | -2.9 | -4.6 | O=C(Nc1ccc2c(c1)[C@@H]1C[C@H](CC(=O)N3CCOCC3)O[C@@H](CO)[C@@H]1O2)c1ccc2c(c1)OCO2
-1.9 | i | -0.2 | -0.8 | C[C@@H]1CN([C@@H](C)CO)C(=O)Cc2cc(NC(=O)CCC(F)(F)F)ccc2O[C@H]1CN(C)C(=O)Nc1ccc(C(F)(F)F)cc1
-11.9 | i | 2.6 | -5.4 | Cn1cnc(S(=O)(=O)N2CC[C@@H]3[C@H](CO)Nc4ccc(C#Cc5ccccc5)cc4[C@@H]32)c1

Carrying on.
Ecoli rRNA inh OD600 | FGF22 binding | Ecoli rRNA inh RFP | Ecoli rRNA inh | structure
-14.5 | i | -1.6 | -11.2 | COc1ccc(C2CC(=O)C(c3cc(OC)c(OC)c(OC)c3)=CN2Cc2ccccc2)cc1 (centres undefined)
6.4 | i | -0.3 | 2.4 | COC(=O)C[C@@H]1CC[C@H]2[C@@H](COc3ccc(NC(=O)NCc4ccccc4)cc3C(=O)N2C)O1
2.0 | i | -1.2 | 2.1 | C[C@@H]1CCCCO[C@H](CN(C)Cc2ccc(C(F)(F)F)cc2)[C@H](C)CN([C@@H](C)CO)C(=O)c2cc(NC(=O)Nc3ccc(C(F)(F)F)cc3)ccc2O1
-3.9 | i | -2.0 | -3.5 | C[C@@H]1CN([C@H](C)CO)C(=O)Cc2cc(NC(=O)Cc3cn(C)c4ccccc34)ccc2O[C@H]1CN(C)Cc1ccc(Oc2ccccc2)cc1
-32.9 | i | -2.0 | -3.6 | Cc1ccc(S(=O)(=O)N2[C@H](CC(=O)c3cccs3)OC[C@@H]2C)cc1
-8.3 | i | 3.6 | -5.6 | O=C(N[C@@H](Cc1cccnc1)C(=O)N1CCC[C@H]1C(=O)NCCc1ccccc1Cl)C1CCCC1
-7.1 | i | -0.7 | -1.2 | CC(=O)Nc1ccc2c(c1)C(=O)N(C)[C@@H]1CC[C@H](CC(=O)NCc3ccc4c(c3)OCO4)O[C@@H]1CO2
-7.4 | i | -4.4 | -3.1 | COc1ccc(NC(=O)Nc2ccc3c(c2)C(=O)N([C@@H](C)CO)C[C@@H](C)[C@@H](CN(C)C(=O)CCC(F)(F)F)OCCCC[C@H](C)O3)cc1

Other records follow.
Ecoli rRNA inh OD600 | FGF22 binding | Ecoli rRNA inh RFP | Ecoli rRNA inh | structure
3.3 | i | 0.0 | -6.9 | O=S(=O)(c1cccc(F)c1)N1CC[C@@H]2[C@H](CO)Nc3ccc(C#Cc4cccc(F)c4)cc3[C@@H]21
-80.1 | i | -14.2 | -56.8 | COc1ccc2c3c(n(C)c2c1)[C@@H](CO)N(C(=O)C1CCCC1)CC31CN(Cc2cccc(F)c2)C1
6.4 | i | 4.3 | 26.9 | O=C(O)[C@H](Cc1ccccc1)NC(=O)[C@H]1O[C@@H](n2ccc(=O)[nH]c2=O)[C@H](O)[C@@H]1O
4.2 | i | -3.5 | 2.6 | C[C@H](CO)N1C[C@H](C)[C@H](CN(C)C(=O)Nc2ccccc2)Oc2ccc(NC(=O)Nc3ccc4c(c3)OCO4)cc2CC1=O
-11.0 | i | 7.1 | -8.7 | COC(=O)C[C@H]1CC[C@@H]2[C@H](COc3ccc(NC(=O)Nc4ccc(Cl)cc4)cc3C(=O)N2C)O1
5.4 | i | 5.4 | 17.0 | Cc1cc(N2CCNC[C@H]2C)ccc1N1CCN(Cc2ccccc2)[C@@H](C)C1
0.8 | i | -4.4 | 1.3 | COc1ccc(NC(=O)Nc2ccc3c(c2)[C@@H]2C[C@@H](CC(=O)N4CCOCC4)O[C@H](CO)[C@@H]2O3)cc1
-78.6&-74.4 | i | -16.9&-15.9 | -54.1&-56.6 | COc1cccc(CN2C[C@@H]3N[C@H](C2)C3c2ccc(-c3ccccc3C)cc2)c1 (some centres undefined)

(next part)
Ecoli rRNA inh OD600 | FGF22 binding | Ecoli rRNA inh RFP | Ecoli rRNA inh | structure
6.8 | i | -1.7 | 3.6 | COc1ccc(NC(=O)Nc2ccc3c(c2)CC(=O)N([C@H](C)CO)C[C@H](C)[C@@H](CN(C)C(=O)Nc2c(C)noc2C)O3)cc1
4.2 | i | 3.5 | 8.8 | COc1cc(Nc2cc(C)n(-c3ccc(Cl)c(OC)c3)c(=O)c2)ccc1Cl
-34.4 | i | -2.1 | -14.9 | CC(C)[C@H](NS(=O)(=O)c1ccc(F)cc1F)C(=O)N1CCC[C@H]1C(=O)NCCc1ccccc1Cl
-15.6 | i | -0.7 | 1.0 | COC(=O)C1=CN(c2ccc(F)cc2)C(N)=C(C#N)C1c1cccc(F)c1 (centres undefined)
3.3&4.1 | i | 0.6&2.3 | 6.0&3.0 | CN(C)C(=O)c1cccc(-c2ccc(C3[C@@H]4CN(C(=O)c5cnccn5)C[C@H]3N4)cc2)c1 (some centres undefined)
1.7 | i | -2.0 | -0.4 | CCC(=O)Nc1ccc2c(c1)C(=O)N(C)C[C@H](OC)[C@H](C)CN(Cc1cccnc1)[C@H](C)CO2
3.2 | i | 0.2 | 2.0 | COc1ccc(S(=O)(=O)N(C)C[C@H]2Oc3c(NS(=O)(=O)c4ccc(Cl)cc4)cccc3C(=O)N([C@H](C)CO)C[C@@H]2C)cc1
-9.5 | i | 1.6 | -3.1 | O=C(Nc1ccc(F)cc1)Nc1ccc2c(c1)[C@@H]1C[C@H](CC(=O)N3CCCCC3)O[C@@H](CO)[C@@H]1O2

Part of the list above in order of count of non-hydrogen atoms, descending.
Ecoli rRNA inh OD600 | FGF22 binding | Ecoli rRNA inh RFP | Ecoli rRNA inh | structure
1.7 | i | -2.0 | -0.4 | CCC(=O)Nc1ccc2c(c1)C(=O)N(C)C[C@H](OC)[C@H](C)CN(Cc1cccnc1)[C@H](C)CO2
3.3&4.1 | i | 0.6&2.3 | 6.0&3.0 | CN(C)C(=O)c1cccc(-c2ccc(C3[C@@H]4CN(C(=O)c5cnccn5)C[C@H]3N4)cc2)c1 (some centres undefined)
-15.6 | i | -0.7 | 1.0 | COC(=O)C1=CN(c2ccc(F)cc2)C(N)=C(C#N)C1c1cccc(F)c1 (centres undefined)

Assay outcomes as filed in PubChem BioAssay.
